# HIV Env fusion: HIV envelope-mediated fusion inhibition. HeLa-JRFL Env/CEM21 cell fusion, luciferase. inhibition, % at 12.3 µM. 1.1% of 360,000 active;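 active = mean replicate inhibition score of at least 50 and every replicate individually at or above 50; inconclusive = only one of the two criteria met; inactive = mean below 50 and not all replicates reaching 50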;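 note: 0% = plate neutral controls and 100% = maraviroc near 300 nM; one replicate is shown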
# Yeast UUG start: modulators of start codon recognition fidelity in yeast; S. cerevisiae UUG-firefly luciferase reporter, luminescence/redox ratio; activity score, % at 18.7 µM; 0.13% of 350,000 active; AID 602363;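 active = replicate mean at a twofold rise or more, about +100% in these data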;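 note: firefly luciferase made from a UUG start codon reports start codon fidelity; reporter light over untreated wells divided by growth signal over untreated wells; some hits fall short of that in this replicate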
# eIF4H FP inh: inhibitors of RNA binding by human eIF4H; 0.94% of 290,000 active; eIF4H fluorescence polarization binding assay; inhibition, % at 35 µM;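 active = 50% or more with normal probe brightness, or confirmed in later tests; inconclusive = above 50% with abnormal brightness, or retests that disagree; inactive = below 50% or failed in later tests; about a fifth of its hits are not listed in these tables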;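 note: calls also rest on retests at 20 µM and on dose response follow-up; 0% = protein and probe with vehicle and 100% = probe without protein; strong numbers were not always called active; many hits fall short of the cut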
# MT1-MMP act inh: blocks activation of human MT1-MMP; P50281; GFP/RFP ratio change, % at 20 µM; HT1080 RFP-PRO-GFP cells, GFP/RFP ratio fluorescence, overnight; percent of plate control window, DMSO zero; 0.061% of 360,000 active; AID 651647;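 active = GFP/RFP ratio change of at least 30% with cell ATP level not reduced by more than half and red fluorescence within 50% of control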; note: strong numbers were not always called active
#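 Test system: HT1080 cells expressing an RFP-PRO-GFP fluorescent reporter construct / Compound dosing: single-point 20 µM compound, 1% DMSO / Schedule: cells overnight before dosing, compound overnight, 37 °C, 5% CO2 / Evaluation: GFP/RFP fluorescence ratio / Control set: DMSO and RFP-L50D-GFP cell wells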
# Rce1 inh: blocks yeast Ras-converting enzyme | Q03530 | yeast membranes, quenched prenylated peptide cleavage fluorescence | calls only | 0.27% of 290,000 active;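 active = fall in fluorescence gain of 50% or more versus controls, with final raw signal at or below 3038400; inconclusive = same 50% fall but final raw signal above 3038400; inactive = fall in fluorescence gain under 50%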;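 note: plate controls were neutral control wells for no effect and wells lacking membranes for full effect; tested at 10 µM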
# Target sequence (Q03530 whole entry, looked up): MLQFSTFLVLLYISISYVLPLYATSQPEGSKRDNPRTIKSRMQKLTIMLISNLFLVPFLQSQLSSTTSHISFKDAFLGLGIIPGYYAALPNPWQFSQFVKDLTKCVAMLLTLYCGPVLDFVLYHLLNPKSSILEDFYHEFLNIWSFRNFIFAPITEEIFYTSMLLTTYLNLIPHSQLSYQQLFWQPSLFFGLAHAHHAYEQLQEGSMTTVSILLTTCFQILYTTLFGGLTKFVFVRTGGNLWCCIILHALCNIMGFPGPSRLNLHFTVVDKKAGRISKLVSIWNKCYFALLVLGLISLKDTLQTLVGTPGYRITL
# CSC inhib: cancer stem cell inhibition. cancer stem cell-like cells viability, luminescence. 1.1% of 300,000 active. inhibition, % at 7.5 µM;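 active = mean at 75% or more and at least half the replicates too; inconclusive = mean and replicates disagree; tested in HMLE shEcad cells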;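 note: 0% = median of negative and 100% = median of positive control wells; the first replicate is given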
# PABP polyA inh: PABP-poly(A) binding inhibition; P11940; PABP-poly(A) RNA binding, fluorescence polarization; inhibition, % at 35 µM; 1% of 290,000 active; AID 2014;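 active = 50% or more with normal probe brightness, or confirmed in later tests; inconclusive = above 50% with abnormal brightness, or retests that disagree; inactive = below 50% or failed in later tests; about a fifth of its hits are not listed in these tables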;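 note: calls also rest on retests at 20 µM and on dose response follow-up; controls were probe without protein and protein plus probe with vehicle; some compounds called inactive have numbers as strong as hits; many hits fall short of the cut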
# Target sequence (P11940 whole entry, looked up): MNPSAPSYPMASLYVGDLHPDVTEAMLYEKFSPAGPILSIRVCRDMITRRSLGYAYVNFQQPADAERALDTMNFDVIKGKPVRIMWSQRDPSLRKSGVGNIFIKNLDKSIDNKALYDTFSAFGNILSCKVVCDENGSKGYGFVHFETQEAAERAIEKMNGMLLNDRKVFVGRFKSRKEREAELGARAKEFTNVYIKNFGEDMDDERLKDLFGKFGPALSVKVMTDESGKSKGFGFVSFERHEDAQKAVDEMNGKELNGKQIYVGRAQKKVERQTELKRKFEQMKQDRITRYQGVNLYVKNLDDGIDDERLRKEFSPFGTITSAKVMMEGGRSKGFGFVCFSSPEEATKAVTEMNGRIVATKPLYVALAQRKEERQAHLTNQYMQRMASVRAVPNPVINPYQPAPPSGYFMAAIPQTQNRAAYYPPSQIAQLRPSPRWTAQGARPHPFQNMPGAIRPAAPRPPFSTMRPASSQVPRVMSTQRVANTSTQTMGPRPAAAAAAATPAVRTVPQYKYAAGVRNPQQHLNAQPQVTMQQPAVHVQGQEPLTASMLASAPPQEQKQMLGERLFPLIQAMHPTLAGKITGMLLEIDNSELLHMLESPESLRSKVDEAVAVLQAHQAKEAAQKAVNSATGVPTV
# eIF4H FP inh retest: second read-out of eIF4H FP inh, no call of its own (marks repeat the call); inhibition, %; compound at 20 µM; confirmation average;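 mean of two retest wells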
# PABP polyA inh retest: further read-out of PABP polyA inh, marked with its call; inhibition, %; compound at 20 µM; confirmation repeats;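 mean of two retest wells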
# MT1-MMP act inh RFP: second read-out of MT1-MMP act inh, no call of its own (marks repeat the call); RFP signal change, %; measured here: RFP expression control read;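 0 = vehicle wells; hits needed this value within 50% of zero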
# * = called active by the depositor; i = inactive; u = inconclusive; x = no result given; + = active, no number.
SMILES,HIV Env fusion,Yeast UUG start,eIF4H FP inh,MT1-MMP act inh,MT1-MMP act inh RFP,Rce1 inh,CSC inhib,PABP polyA inh,others
CCCCNC(=O)C1(C)CCN1C(=O)c1ccc(C)c(F)c1 (stereo not given),-7,-4,x,1,-2,x,x,x,
Cc1ccc(CNC(=O)CCSCCC(=O)NCc2ccc(C)cc2)cc1,15,-23,-4,-5,4,i,-3,3,
COc1ccccc1CNC(=O)CC(C)c1ccccc1 (stereo not given),9,-4,11,-2,-5,i,-15,16,
Nc1nc(SCC(=O)Nc2cccc(F)c2)n[nH]1,x,-15,x,-2,-1,x,-7,x,
CCC(C)NC(=O)CN(C1CCCCC1)S(=O)(=O)c1ccc(F)cc1 (stereo not given),6,-20,2,1,3,i,-1,-4,
C=CCn1c(SCC(=O)N2CCOCC2)nc2scc(-c3ccco3)c2c1=O,x,-9,66*,-16,6,i,-15,67*,
Cc1ccc(-c2nn3c(C)nnc3c3ccccc23)cc1S(=O)(=O)NC(C)c1ccccc1 (stereo not given),x,-9,-1,8,-2,i,-3,3,
Cc1ccc(CNC(=O)Nc2ccc(C)cc2)cc1,4,x,-7,1,5,i,-2,20,
CCOC(=O)CC(NC(=O)c1cc2cccc(OC)c2oc1=O)c1ccc(OC)cc1 (stereo not given),-44,6,-6,-2,-1,i,-4,2,
COCCn1c(=O)[nH]c2cc(C(=O)N3CCN(c4ccccc4OC)CC3)ccc2c1=O,14,x,-1,-3,-2,i,-18,-12,
Cc1cc(NC(=O)C(C)SCC(=O)Nc2ccc(SC(F)F)cc2)no1 (stereo not given),-1,-9,-2,3,-2,i,4,-3,
O=C(Cc1cccs1)N=Nc1c(O)[nH]c2ccccc12,-38,-9,3,7,0,i,-12,26,
Cc1n[nH]c(=O)n1-c1ccc(OC(F)(F)F)cc1,-20,x,4,2,3,i,-5,11,
CC1CN(c2ccc([N+](=O)[O-])cc2C(=O)N2CCOCC2)CC(C)N1 (stereo not given),-24,x,-3,2,2,i,-32,4,
CCCOc1ccc(C(=O)CCNC(Cc2c[nH]c3ccccc23)C(=O)O)cc1 (stereo not given),x,-8,2,-3,0,i,1,6,
CCn1ccnc1CN(C)Cc1nc(Cc2cccc(C(F)(F)F)c2)no1,10,x,-6,4,5,i,x,0,
CCN(CC)S(=O)(=O)c1cccc(C(=O)N/N=C(\C)c2cccs2)c1,-10,-6,9,4,-1,i,-14,3,
CC1CCC(C(C)C)C(OCC(O)CN2CCN(Cc3ccccc3)CC2)C1 (stereo not given),x,x,-5,0,-5,i,35,-1,
O=c1[nH]cccc1-c1nc2ccccc2n1Cc1ccccc1F,-7,-18,3,0,3,i,-9,6,
CN(C)c1ccc(NC(=O)CC2NCCNC2=O)cc1 (stereo not given),7,-7,-1,-3,0,i,-3,-14,
COc1ccc(Br)c(C(=O)OCC(=O)Nc2cc(C)on2)c1,14,-3,x,3,5,x,x,x,
O=[N+]([O-])c1ccc(-c2ccc(/C=N/Nc3nc(N4CCCC4)nc(N4CCCC4)n3)o2)cc1,7,x,4,-58,-7,i,-14,12,
Cc1cc(N/N=C/c2ccc(O)c(C)c2O)nc(-c2ccccc2O)n1,-36,6,-4,-22,-23,+,113*,7,
Cc1ccc(C(c2nnnn2C2CCCC2)N2CCN3CCCC3C2)cc1 (stereo not given),-98,x,-3,-13,2,i,11,-2,
COc1ccc(Cl)cc1Nc1nc(-c2sc(NC(=O)C(C)(C)C)nc2C)cs1,36,-1,-18,11,-19,i,-14,-19,
CCCc1cc(C(=O)OCC(=O)N2CCN(c3ccc(OC)cc3)CC2)sc1C,8,-19,x,4,1,x,-15,x,
Cc1nnc(SCc2cc(=O)[nH]c(N3CCN(Cc4ccccc4)CC3)n2)s1,x,-9,1,2,1,i,2,1,
CCC(c1nnnn1Cc1ccc(F)cc1)N(CCCO)Cc1cc2cc3c(cc2[nH]c1=O)OCO3 (stereo not given),x,12,10,-10,-1,i,-9,7,
Cc1ccc(N2C(=O)CC(Sc3nc(C)cc(C)n3)C2=O)cc1 (stereo not given),13,-11,-6,-4,-6,i,23,-4,
c1ccc2c(c1)CCCN2Cc1nnnn1CC1CCCO1 (stereo not given),-57,-4,u,-35,0,i,-14,u,
CC(C)Oc1ccc(C2CC(=O)N(c3cccc(C(=O)O)c3)C2=O)cc1 (stereo not given),-57,-14,-3,2,3,i,-7,-8,
COc1ccc(-c2csc(NNC3=NCCCCC3)n2)cc1,-27,x,7,x,x,x,3,3,
Cc1ccc(-c2csc(NC(=O)CCNC(=O)c3ccco3)n2)cc1,-3,x,2,3,1,i,x,u,
COc1ccc(S(=O)(=O)Nc2ccc(N3CCOCC3)nc2)cc1,5,-16,12,1,2,i,9,8,
Cc1ccc(C)c(S(=O)(=O)N2CCN(C(=O)c3ccnn3C)CC2)c1,11,-11,3,-4,1,i,11,7,
CCc1nnc(NC(=O)CSc2nnc(COc3ccc(C#N)cc3)n2-c2ccccc2)s1,8,-16,-4,2,-3,i,-15,-3,
COc1ccccc1/C=C/C=N/n1c(C)nnc1C,12,x,-5,1,4,i,-12,-9,
CC(=O)N(C(C)=O)c1ccc2nc(C)[nH]c(=O)c2c1,x,-15,10,2,1,i,0,2,
COc1cccc(OC)c1C(=O)Nc1ccc(CN2CCCCC2)cc1,5,-14,-4,0,1,i,-5,-12,
CCNc1c(NS(=O)(=O)c2ccc(Cl)s2)c(=O)oc2ccccc12,-7,2,1,1,-1,x,-2,0,
CC(C)CCCN1C(N(C)C)=NC[C@@H]1C,-15,0,x,5,3,x,-18,x,
Cc1[nH]n(-c2cccc(Cl)c2)c(=O)c1C=NC12CN3CN(CN(C3)C1)C2,x,1,-1,1,7,i,2,-2,
COc1cc(/C=C/C(=O)NCc2ccccn2)cc(OC)c1OC,-17,-21,11,2,1,i,8,7,
Cc1cccc(OCC(=O)N2CCc3ccccc3C2)c1,-13,-29,-8,4,2,i,-4,1,
Clc1ccccc1CSc1nnc(/C=C/c2ccccc2)o1,x,-10,-4,3,1,i,20,2,
NC1=CC(=O)c2cccc3cccc1c23,x,x,u,x,x,i,-1,u,
COc1cccc(NS(=O)(=O)c2cc(C)sc2C)c1,x,-7,4,x,x,i,-1,5,
Oc1ccc2ccccc2c1/C=N/Nc1ccccc1,x,x,-4,5,10,i,41,8,
CC(=O)c1ccc(C(=O)Nc2sc3c(c2C(N)=O)CCN(Cc2ccccc2)C3)cc1,4,-12,u,-70,-2,i,32,u,
O=C(Cc1cccs1)Nc1ccccc1,-203,-19,-1,2,-1,i,-1,28,

# Structural class, the entries above containing a COOH group (2)
SMILES,HIV Env fusion,Yeast UUG start,eIF4H FP inh,MT1-MMP act inh,MT1-MMP act inh RFP,Rce1 inh,CSC inhib,PABP polyA inh,others
CCCOc1ccc(C(=O)CCNC(Cc2c[nH]c3ccccc23)C(=O)O)cc1 (stereo not given),x,-8,2,-3,0,i,1,6,
CC(C)Oc1ccc(C2CC(=O)N(c3cccc(C(=O)O)c3)C2=O)cc1 (stereo not given),-57,-14,-3,2,3,i,-7,-8,

# (listing goes on)
SMILES,HIV Env fusion,Yeast UUG start,eIF4H FP inh,MT1-MMP act inh,MT1-MMP act inh RFP,Rce1 inh,CSC inhib,PABP polyA inh,others
O=C(Nc1cccc(C(F)(F)F)c1)c1ccc2sc([C@@H]3O[C@H](CO)[C@H](O)[C@H](O)[C@H]3O)nc2c1,3,-5,x,0,-1,x,x,x,
COCCCNCCOCCOc1ccc(C)cc1Br,12,-10,1,-5,-4,i,25,0,
O=C(NNS(=O)(=O)c1ccccc1[N+](=O)[O-])c1ccccc1[N+](=O)[O-],x,4,2,0,3,i,-6,0,
COc1ccc(CNc2ccc3c(c2)nc(C)n3C)cc1OC,-15,-22,-13,-1,3,i,-10,-2,
Oc1ccc(-c2nc(-c3ccc(O)c(O)c3)cs2)cc1,-485,-10,1,13,-11,i,58,4,
O=[N+]([O-])c1ccc(N(CC2CO2)S(=O)(=O)c2ccccc2)cc1 (stereo not given),6,-20,-5,2,1,i,x,13,
NS(=O)(=O)c1cc(C(=O)OCC(=O)NNC(=O)c2ccccc2)ccc1Cl,-23,x,x,-1,2,i,1,x,
CCS(=O)(=O)N1CCN(C(=O)CC(C)C)CC1,-66,x,5,-1,0,i,3,0,
O=C(Nc1ccc(S(=O)(=O)NCc2ccco2)cc1)C1CCCCC1,18,x,13,-1,-5,i,5,10,
CC(C)c1ccc[n+](-c2nc([O-])sc2C=O)c1,-9,-9,2,2,0,i,-11,19,
Cc1ccc(OCC(=O)N(Cc2cccs2)C2CCS(=O)(=O)C2)cc1 (stereo not given),1,-7,-6,-3,-3,i,-5,-5,
CN1CCN(NC(=O)Nc2ccc([N+](=O)[O-])cc2)CC1,x,-12,4,-1,-1,i,4,4,
O=S(=O)(NCc1cccnc1)c1ccc2c(c1)OCCO2,x,-11,6,5,-3,i,-18,2,
CN1CCN(CCCNC(=O)c2nnc(Cc3c(F)cccc3Cl)o2)CC1,x,5,-11,-8,3,i,16,2,
O=C(NCc1ccco1)C1(S(=O)(=O)c2ccccc2)CC=CC1,-6,-7,-2,2,5,i,-13,-5,
Cc1ccc2nc(-c3ccc(F)cc3)nc(SCC(=O)NCC3CCCO3)c2c1 (stereo not given),7,-13,-8,-1,-1,i,-34,18,
COC(=O)/C=C1/C(=O)N/C(=N\c2nc(C)cc(C)n2)N1c1ccc(OC)cc1,20,-20,0,1,3,i,1,-5,
COc1ccc(C(NCC(=O)NC(C)c2ccc(Cl)cc2)c2ccccc2)cc1 (stereo not given),15,-8,12,-2,-5,i,0,8,
COc1cccc(NC(=O)N2CCCC(C(=O)NCc3ccc(F)cc3)C2)c1 (stereo not given),-5,5,2,5,4,i,x,5,
CCN(CC)Cc1cc2ccccc2c2c1COC2,-89,-3,13,-2,-4,x,-2,10,
COC(=O)/C(=C/Nc1ccc(O)cc1)[N+](=O)[O-],15,-10,5,21,13,i,-14,8,
CC[N+](C)(CC)CCC/C(=N/O)C(O)(c1ccccc1)c1ccccc1,6,-12,x,1,-5,i,-15,x,
O=C(COc1ncnc2scc(-c3ccc(F)cc3)c12)NCc1ccco1,x,-5,-6,0,5,i,-6,3,
Cc1nnc(SCCn2c(N3CCCC(C)C3)nc3c2c(=O)n(C)c(=O)n3C)s1 (stereo not given),x,-7,-15,4,8,i,2,3,
O=C(Nc1ccc(Cl)cc1)OCc1cn(-c2ccccc2)nn1,10,x,-24,1,2,i,23,-4,
CC(=NNC(=S)N1CC2CCC(CC2)C1)c1ccccn1,9,-24,x,-1,-7,x,x,x,
CN1CCN(CC(=O)Nc2ccc(OCc3ccccc3)cc2)CC1,x,x,-15,x,x,i,50,20,
Cc1nn(-c2ccccc2)c(C)c1NC(=O)COC(=O)Cc1ccccc1F,-7,-11,x,0,2,i,0,x,
O=C(O)c1nnn(-c2cc(C(F)(F)F)cc(C(F)(F)F)c2)c1-c1ccccc1,-8,-8,-15,-1,3,i,-13,7,
CC(=O)Nc1ccc(S(=O)(=O)NNC(=O)COc2ccc(C)cc2)cc1,-3,x,5,3,1,i,0,-6,
C/C(Cc1ccccc1)=N\NC(=O)CNC(=O)c1ccccc1,6,-5,-10,2,2,i,-8,52,eIF4H FP inh retest=-14;PABP polyA inh retest=3
